AID504770: growth inhibition of E. coli YBA685, primary screen, V. cholerae RctB inhibitors | hit rate 0.27% among 130,000 | E. coli YBA685 rctB-dependent plasmid, OD600 growth, 3 h; hits give low values | z-score (test concentration not listed);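 active = z-score under -2 on both plates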;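 note: wells of about 30 µL received 100 nL stock; score is relative to mean and SD of the test wells; the first replicate is given; strong numbers were not always called active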
CapD inh: Bacillus anthracis CapD inhibitors, primary screen, biochemical, fluorescence intensity; purified CapD enzyme, fluorescence intensity read-out; hits give low values; some hits fall short of the stated cut; z-score (no concentration beside the values); hit rate 0.23% among 140,000; AID 492967, 2010;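 active = z-score under -4 in either of two replicates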;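 note: stock transfer was 100 nL into about 40 µL; score is relative to mean and spread of the plate; one replicate is shown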
Active calls of the source: *; . = no result given. An excerpt; count on the stated rates, not on these rows.

compound,AID504770,CapD inh
Cc1ccc(N2C(=O)C=CC2=O)cc1,-1.35,.
COc1ccc(C2Oc3ccc(Cl)cc3C3CC(c4ccccc4)=NN32)cc1OC (stereo not given),.,-0.095
Cc1cc(-c2nnc(C(F)(F)F)o2)ccc1NC(=O)c1cccs1,-1.2,-0.505
CC(=O)Oc1ccccc1C(=O)Oc1ccc(C#N)cc1,-0.2,0.39
CNC(=O)c1ccc(/C=C2/Oc3ccccc3N(Cc3cccc(C)c3)C2=O)cc1,1.6,23.9
Nc1nc2n(n1)C(c1ccc(Br)cc1)C=C(c1ccccc1)N2 (stereo not given),-0.55,22.4
CCC(=O)Nc1ccc2nc(C3CC3)n(Cc3ccc(Cl)cc3)c(=O)c2c1,2.55,.
N#CCCN(C(=O)c1ccc2c(=O)n3c(nc2c1)CCCCC3)c1ccccc1,1.6,-0.625
CC(C)n1nccc1NC(=O)c1cccnc1Sc1ccccc1,0.15,.
CC1CCN(S(=O)(=O)N2CCCC(C(=O)NCCCN3CCN(c4ccc(F)cc4)CC3)C2)CC1 (stereo not given),-1.2,0.68
O=C(NC1CCSC1=O)c1nc(-c2ccccc2)oc1C(F)(F)F (stereo not given),.,-0.11
CCOC(=O)N1CCN(c2ncnc3c2c(-c2ccccc2)cn3-c2cccc(Cl)c2)CC1,.,0.785
CC(C)(C)C(=O)OCc1nc(-c2cc(-c3ccccc3)no2)cs1,-0.8,-0.175
CC(C)(C)C(=O)COC(=O)c1cccc(NC(=O)c2ccco2)c1,1.05,1.4
Cc1ccc(C)c(N2CCN(S(=O)(=O)c3ccc4c(c3)CCC(=O)N4)CC2)c1,0.1,-0.76
Cc1n[nH]c(C)c1S(=O)(=O)N1CCc2ccccc2C1,-0.75,0.795
CC(C)(C)NC(=O)COc1ncnc2sccc12,-0.1,.
N#CC1(C#N)[C@H](c2ccc(Cl)c(Cl)c2)[C@@H](C(=O)C23CC4CC(CC(C4)C2)C3)N2c3ccccc3C=C[C@@H]21,.,2.04
CCCCOc1ccc(-c2ncc(N)cn2)cc1,-0.6,39.6
COC(=O)c1ccc(CN2C(=O)NC3(CCCC3)C2=O)cc1,-0.15,.
CC(=O)N(CCC(c1ccccc1)c1ccco1)Cc1ccc(N(C)C)cc1 (stereo not given),0.65,-0.44
C=CCCC1(C)NNc2nc(=O)c(C)nn21 (stereo not given),1.4,.
COc1ccc2[nH]c3c(OC)ncnc3c2c1,0.25,-0.27
Cn1c(=O)c2c(nc3n2CC(C24CC5CC(CC(C5)C2)C4)=NN3Cc2ccccc2)n(C)c1=O,.,-0.04
COC(=O)c1ccc2c(c1)sc(=NC(=O)CSC(C)=O)n2C,0.05,0.19
O=C(CC1Sc2ccccc2NC1=O)NNC(=O)OCCc1ccccc1C(F)(F)F (stereo not given),.,0.15
CC1CCCCC1NC(=O)CSc1nncn1N (stereo not given),-0.1,.
Cn1c(=NC(=O)CC2OC(=O)c3ccccc32)sc2ccccc21 (stereo not given),1.6,.
CC(C)(C)c1nn(Cc2ccccc2)c(C(=O)O)c1Br,0.25,-0.285
Cn1c(Sc2cccs2)nc(C#N)c1C#N,-0.8,-0.745
CCOC(=O)c1c(NC(=O)c2cc3ccccc3oc2=O)sc2c1CCC(C)C2 (stereo not given),.,-0.335
O=C(Cn1cc(CO)c2ccccc21)Nc1ccccc1,0.15,0.005
O=C(NC(Cc1ccccc1)c1nc2ccccc2[nH]1)c1ccccc1 (stereo not given),0.6,0.085
O=C1Nc2ccc(S(=O)(=O)NC3CCCCC3)c3cccc1c23,.,19.5
O=C(/C=C/c1ccc(OC(F)F)cc1)NCc1ccccn1,-0.45,.
Cc1nc2c(C(=O)N3CCc4ccccc4C3)cnn2c(C)c1Cc1ccc(Cl)cc1,1.6,0.255
Oc1ccc(-c2nc(-c3ccccc3)c3ccccn23)cc1,-0.65,-0.725
COc1ccc(OCCCn2c(=O)oc3ccccc32)cc1,-1.55,0.08
COC(=O)C1CCN(C(=O)c2ccccc2)CC1,1.25,-0.025
CC(=O)Nc1ccc(N2C(=O)C(=O)/C(=C(/O)c3ccccc3)C2c2ccccc2)cc1 (stereo not given),.,-0.57
CCOc1ccc(N2CCN(S(=O)(=O)c3ccc(NC(C)=O)cc3)CC2)cc1,.,-0.23
CC(C)(C)c1ccc(C(=O)C(C#N)=C2SCCCS2)cc1,-0.6,-1.94
CC(=O)C1=NN(c2ccccc2)C(c2ccc3c(c2)OCO3)N1C(C)(C)C (stereo not given),.,-0.075
Cc1cc(=O)n2c3c(cc(S(=O)(=O)NC4CC4)cc13)CCC2,-0.5,.
CN1CCN(C(=O)c2cc(-c3ccc(F)cc3)nc3ccccc23)CC1,0.55,8.66
C/C(=N\N1C(=O)c2ccccc2C1=O)C1C(=O)c2ccccc2C1=O,0.5,-0.46
CCNCCC(=O)N1c2ccccc2Sc2ccc(C(F)(F)F)cc21,.,-0.01
CC(C)n1nc(C(=O)N2CCc3ccccc32)c2ccccc2c1=O,-0.75,.
CCc1cc(SC#N)ccc1N,-0.15,.
C=CCn1c2c(c(=O)[nH]c1=O)C(c1ccccc1)C1=C(COC1=O)N2 (stereo not given),0.95,.

An excerpt of these results, with two lines to a compound:
Fields: AID504770 | CapD inh
O=C(CC1Sc2ccccc2NC1=O)NNC(=O)OCCc1ccccc1C(F)(F)F (stereo not given)
→ . | 0.15
CC1CCCCC1NC(=O)CSc1nncn1N (stereo not given)
→ -0.1 | .
Cn1c(=NC(=O)CC2OC(=O)c3ccccc32)sc2ccccc21 (stereo not given)
→ 1.6 | .

Later entries:
compound,AID504770,CapD inh
CN(Cc1ccccc1)C(=O)c1cccc(N2C(=O)C3CC=CCC3C2=O)c1 (stereo not given),-0.35,-0.375
O=C1CSCC(=O)N1c1ccccc1,-1.2,-0.32
CCCCN(CC)C(=O)C1CCCN(S(=O)(=O)c2cccc3nsnc23)C1 (stereo not given),-0.4,-0.99
O=C1Cc2ccccc2C(=O)N1Cc1ccc2c(c1)OCO2,-0.25,-0.42
Cc1nnc(SCc2ccccc2)n1N,0,.
CCN1CCc2c(OCC(=O)NCc3ccco3)cccc2C1=O,-0.25,0.51
CCCOc1ccc(N=c2ssc3c2-c2ccccc2NC3(C)C)cc1,.,-0.46
COc1ccc(CN(C(=O)c2ccco2)c2ccccc2)cc1,-0.3,.
O=C1c2[nH]nc(-c3ccccc3)c2C(c2cccc(F)c2)N1c1cccc(C(F)(F)F)c1 (stereo not given),.,-0.265
Brc1cccc(-c2noc(CCCOc3ccccc3)n2)c1,0.15,-0.28
c1ccc(-c2nc(-c3cccnc3)no2)cc1,-0.55,.
Cc1ccc2c(c1)c(=O)c1c3n2CCN(CC#N)C3CC1 (stereo not given),0.75,10.6
Cc1ccc(C(=O)NCCc2cn3ccccc3n2)cc1,1.05,.
CNc1c(NS(=O)(=O)c2ccc(C)cc2C)c(=O)oc2ccccc12,-0.65,0.17
NC(=O)c1ccc[n+](CC(=O)N2CCCCC2)c1,-0.7,0.895
COC(=O)c1ccc(-c2nnc(Nc3ccc(Cl)cc3)c3ccccc23)cc1,.,-0.14
O=P(OCC1CC1)(c1ccccc1)c1ccccc1,-0.3,-0.095
CC(=C(C#N)C#N)c1ccc2c(c1)OCO2,-0.35,.
Cn1nc(C(F)(F)F)c(/C=N/O)c1SCc1ccccc1Cl,.,-0.395
Cc1c(CCC(=O)NN)c(C)n2c(nc3ccccc32)c1C#N,1.55,1.92
CC1(C)CC(=O)C2=C(C1)Nc1ccc3ccccc3c1C2c1ccc(Cl)cc1 (stereo not given),.,12.5
CCc1ccc(NC(=O)CSc2nc3ccccc3c(=O)n2CCCN2CCC(C)CC2)cc1,1.35,9.21
O=C(NC1CCCCCC1)c1cccc(-n2cnnc2)c1,-0.6,0.28
CN(C)S(=O)(=O)c1ccc(C(=O)NCc2nc3ccccc3n2C)cc1,0.65,.
O=C(COc1ccc2oc3c(c2c1)CCCC3)Nc1ccccc1,-0.25,0.09
N#Cc1c(N2CCN(C=O)CC2)nc(N)c2c(N)nc3c(c12)CC(=O)N3Cc1cccs1,1.45,.
COc1ccc(OCc2nnco2)cc1,0.25,0.97
CC(C)COc1ccc2c(c1)c1c3c([n+](C)ccn32)CCC1,-0.95,-0.01
N/C(=N\O)c1cnc(-c2ccncc2)nc1N,.,-0.43
Cc1ccc(NC(=O)C2OC3OC4(CCCCC4)OC3C3OC4(CCCCC4)OC23)cc1Cl (stereo not given),.,-0.295
COC(=O)c1cc(OC)c(OC)cc1NC(=O)C(C)C,0.45,.
Cc1cc2c3c(c(N)cc(S(=O)(=O)O)c3n1)C(=O)c1ccccc1-2,.,0.06
O=C1CCC(C(=O)OCC(=O)C23CC4CC(CC(C4)C2)C3)N1 (stereo not given),-0.85,-0.225
C=CCN=c1scc(-c2ccccc2)n1/N=C/c1ccc(O)cc1O,1.1,.
O=c1nc(Nc2ccccc2)cn[nH]1,-1.4,.
NC(=O)COc1ccc(-c2noc(-c3cccs3)n2)cc1,-0.95,-0.06
COC(=O)c1c(C)[nH]c(C(=O)C(C)Sc2nnc(-c3ccccc3)o2)c1C (stereo not given),0.95,.
O=C1/C(=C/c2ccc(-c3ccc(Br)cc3)o2)C=C(c2ccccc2)N1c1ccc(-c2ccccc2)cc1,.,-0.515
O=C(CSc1ncnc2ccccc12)NCc1ccccc1,0.7,-0.44
CC(C)CCOc1cccc(C2c3c(oc4ccccc4c3=O)C(=O)N2CCCN2CCOCC2)c1 (stereo not given),-0.55,-0.65
CC(C)(C)N(Cc1ccccc1)C(=O)CSc1nncs1,0.3,.
O=C(OC(c1ccccc1)c1nccc2ccccc12)c1ccco1 (stereo not given),-0.25,-0.105
O=C(c1ccc(-c2ccccc2)cc1)c1cnc(-c2ccc(Cl)cc2)s1,.,0.43
O=C(Nc1cccc2c1CCCC2)N1CCC(CN2CCCCC2)CC1,-1.15,-1.2
Cc1ccc2c(Cn3nnc4ccccc4c3=O)cc(=O)oc2c1,0.25,.
COc1ccc(Cn2c(-c3ccc(Cl)nc3)nc3cc(C)c(C)cc32)cc1,.,7.22
CCN(CC)S(=O)(=O)c1ccc(C(=O)Nc2cccc3c2C(=O)c2ccccc2C3=O)cc1,.,-0.165
CCOC(=O)COn1c(-c2ccc(OC)cc2)nc2ccc(Cl)cc21,.,-0.31
CC1(C)CC(=O)C2=C(C1)Nc1[nH]c(=S)[nH]c(=O)c1C2c1ccc(O)cc1 (stereo not given),0.6,-0.765
COc1ccccc1OC(=O)C1CCCCC1,-0.05,-1.06

Three compounds out of the list, arranged by molar mass, rising.
compound,AID504770,CapD inh
O=c1nc(Nc2ccccc2)cn[nH]1,-1.4,.
COc1ccc(OCc2nnco2)cc1,0.25,0.97
O=C1CCC(C(=O)OCC(=O)C23CC4CC(CC(C4)C2)C3)N1 (stereo not given),-0.85,-0.225

Other structures:
compound,AID504770,CapD inh
CC(C)(C)c1nnc(NC(=O)Nc2ccc(OC(F)(F)F)cc2)s1,.,-0.02
CCCC1=C(C(=O)OCC)C(c2ccc(OC)c(OC)c2)C(C#N)=C(N)O1 (stereo not given),.,3.59
Cc1ccc(CN2CC(C(=O)NCC(=O)OCc3ccccc3)CC2=O)cc1 (stereo not given),1.25,.
CCN(CC)C(=O)c1ccccc1OC,0.95,-0.345
CCCCSc1nnc(CNS(=O)(=O)c2ccc(Cl)cc2)n1CC,.,-0.375
CN1C(=O)CS/C1=C\C(=O)C(C)(C)C,-0.65,.
C=CCn1c(SCC(=O)c2ccccc2)nnc1-c1ccncc1,0.5,-0.175
Cc1ccc(C2N(Cc3ccccc3)CCCN2Cc2ccccc2)o1,-0.65,0.725
COc1ccc(CCNc2ncc3c(n2)CC(c2ccc(C)cc2)CC3=O)cc1 (stereo not given),0,-0.29
CCCC1Cc2[nH]c(=O)c(C(=O)O)cc2CO1 (stereo not given),1.1,7.1
CC(=O)N1CCC(N(C2CC2)S(=O)(=O)c2ccccc2)CC1,.,-0.375
COC(=O)c1cc(OC)c(OC)cc1NC(=O)CSc1nnnn1-c1ccccc1OC,1.45,0.535
NC(N)=NOCC[C@@H](N)C(=O)O,.,-0.31
O=C(NCCc1ccccc1)c1cc2cccc3c2n(c1=O)CCC3,.,11.2
O=C(O)CCc1cnn(-c2ccccc2)c1,-0.5,.
Cc1cc(C)c(NS(=O)(=O)c2ccc(NC(=O)c3nc4ncccn4n3)cc2)c(C)c1,-1.15,-0.29
Cc1cc(C)c2c(c1)c(-c1ccccc1)c(-c1ccccc1)n2CC(O)Cn1cnc(-c2ccccc2)c1-c1ccccc1 (stereo not given),.,33.3
CCOC(=O)c1nn(-c2ccc(C(C)(C)C)cc2)c(=N)c(C#N)c1C,.,-0.18
O=c1[nH]c(CSc2ccccn2)nc2ccccc12,-0.15,-0.195
CCOC(=O)Cc1csc(NC(=O)C(C)(C)C)n1,-0.65,-0.085
N#CCCO/N=C/c1ccco1,1.05,-1.61
Cc1nnc(NC(=O)c2nc3nccc(C)n3n2)o1,-0.4,.
CN1/C(=C2\C=NN(C)P2(=O)N2CCCCCC2)C(C)(C)c2ccccc21 (stereo not given),-0.05,.
Cc1nc(N2CCC(C)CC2)c2c(C)c(C(=O)O)sc2n1,.,-0.615

Assay outcomes as filed in PubChem.
